# CSC inhib: blocks cancer stem cells; cancer stem cell-like cells viability, luminescence; inhibition, % at 7.5 µM; 300,000 compounds, 1.1% hits; AID 2717;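 active = mean at 75% or more and at least half the replicates too; inconclusive = mean and replicates disagree; tested in HMLE shEcad cells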;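 also: 0% = median of negative and 100% = median of positive control wells; the first replicate is given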
# UUG fidelity: modulators of start codon recognition fidelity in yeast; S. cerevisiae UUG-firefly luciferase reporter, luminescence/redox ratio; activity score, % at 18.7 µM; 350,000 compounds, 0.13% hits;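 active = replicate mean at a twofold rise or more, about +100% in these data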;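 also: firefly luciferase made from a UUG start codon reports start codon fidelity; reporter light over untreated wells divided by growth signal over untreated wells; some hits fall short of that in this replicate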
# PABP polyA inh: PABP-poly(A) binding inhibition; PABP-poly(A) RNA binding, fluorescence polarization; 290,000 compounds, 1% hits; inhibition, % at 35 µM;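 active = 50% or more with normal probe brightness, or confirmed in later tests; inconclusive = above 50% with abnormal brightness, or retests that disagree; inactive = below 50% or failed in later tests; about a fifth of its hits are not listed in these tables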;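 also: calls also rest on retests at 20 µM and on dose response follow-up; controls were probe without protein and protein plus probe with vehicle; some compounds called inactive have numbers as strong as hits; many hits fall short of the cut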
# Rce1 inh: blocks yeast Ras-converting enzyme; Q03530; yeast membranes, quenched prenylated peptide cleavage fluorescence; calls only; 290,000 compounds, 0.27% hits;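 active = fall in fluorescence gain of 50% or more versus controls, with final raw signal at or below 3038400; inconclusive = same 50% fall but final raw signal above 3038400; inactive = fall in fluorescence gain under 50%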;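 also: plate controls were neutral control wells for no effect and wells lacking membranes for full effect; tested at 10 µM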
# Target sequence (Q03530 whole entry, looked up): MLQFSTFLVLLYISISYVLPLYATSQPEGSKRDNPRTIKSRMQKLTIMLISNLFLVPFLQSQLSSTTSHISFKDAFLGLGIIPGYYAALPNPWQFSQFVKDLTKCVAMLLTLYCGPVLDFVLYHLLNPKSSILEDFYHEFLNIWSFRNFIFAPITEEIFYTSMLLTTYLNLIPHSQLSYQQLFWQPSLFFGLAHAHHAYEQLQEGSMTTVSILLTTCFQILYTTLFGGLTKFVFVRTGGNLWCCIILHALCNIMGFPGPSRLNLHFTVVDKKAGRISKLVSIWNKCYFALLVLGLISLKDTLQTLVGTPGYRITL
# eIF4H inh: inhibitors of RNA binding by human eIF4H; eIF4H fluorescence polarization binding assay; 290,000 compounds, 0.94% hits; Q15056; inhibition, % at 35 µM; AID 2012;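 active = 50% or more with normal probe brightness, or confirmed in later tests; inconclusive = above 50% with abnormal brightness, or retests that disagree; inactive = below 50% or failed in later tests; about a fifth of its hits are not listed in these tables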;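 also: calls also rest on retests at 20 µM and on dose response follow-up; 0% = protein and probe with vehicle and 100% = probe without protein; strong numbers were not always called active; many hits fall short of the cut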
# MT1-MMP act inh: MT1-MMP (human) activation inhibition; HT1080 RFP-PRO-GFP cells, GFP/RFP ratio fluorescence, overnight; percent of plate control window, DMSO zero; P50281; 360,000 compounds, 0.061% hits; GFP/RFP ratio change, % at 20 µM;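 active = GFP/RFP ratio change of at least 30% with cell ATP level not reduced by more than half and red fluorescence within 50% of control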; also: strong numbers were not always called active
#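 system = RFP-PRO-GFP reporter HT1080 cells | dosing = 20 µM single dose, 1% DMSO | timing = overnight cell settling, then overnight compound exposure, 37 °C, 5% CO2 | read-out basis = GFP/RFP fluorescence ratio | controls = DMSO and RFP-L50D-GFP cell wells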
# HIV Env fusion: inhibitors of HIV Env-mediated cell fusion. HeLa-JRFL Env/CEM21 cell fusion, luciferase. AID 651610. 360,000 compounds, 1.1% hits. inhibition, % at 12.3 µM;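 active = mean replicate inhibition score of at least 50 and every replicate individually at or above 50; inconclusive = only one of the two criteria met; inactive = mean below 50 and not all replicates reaching 50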;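 also: 0% = plate neutral controls and 100% = maraviroc near 300 nM; one replicate is shown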
# eIF4H inh retest: also measured in eIF4H inh; calls as there; inhibition, %; compound at 20 µM; confirmation average;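 mean of two retest wells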
# PABP polyA inh retest: also measured in PABP polyA inh; calls as there; inhibition, %; compound at 20 µM; confirmation repeats;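 mean of two retest wells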
# MT1-MMP act inh RFP: also measured in MT1-MMP act inh; calls as there; RFP signal change, %; measured here: RFP expression control read;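 0 = vehicle wells; hits needed this value within 50% of zero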
# An asterisk follows results filed as active; i = inactive; ? = inconclusive; . = no result given. Outcome played no part in choosing rows. Share with any hit: about 2.9%.
SMILES,CSC inhib,UUG fidelity,PABP polyA inh,Rce1 inh,eIF4H inh,MT1-MMP act inh,MT1-MMP act inh RFP,HIV Env fusion,others
O=C(CN1CCCC1)Nc1cc(F)ccc1F,-3,.,4,i,8,2,8,3,
CCOc1ccccc1Nc1nc(-c2sc(NC(=O)c3cccc(Cl)c3)nc2C)cs1,-3,-15,7,i,-8,14,7,-11,
O=C(O)c1ccc(S(=O)(=O)N2CCCc3ccccc32)cc1,5,-23,7,i,1,1,1,22,
Cc1ccccc1OCC(=O)NCCN1CCCC1,-12,-2,10,.,-6,4,7,-24,
COc1ccc(Cl)c(-c2cc(C(=O)Nc3ccc(F)cc3)[nH]n2)c1,.,-7,.,.,.,3,-8,-68,
CC1C(=O)Nc2ccccc2N1C(=O)c1c(F)cccc1F (stereo not given),-5,3,-3,i,-2,0,0,11,
CCOc1cc(CNC(CC)CO)ccc1OCC(=O)Nc1cccc(C(F)(F)F)c1 (stereo not given),7,.,-9,i,14,2,4,6,
Cc1ccc(S(=O)(=O)CCc2nnc(N)s2)cc1,-15,-49,-13,i,-13,4,6,-54,
Cc1ccc(N=C2NC(=O)/C(=C/C=C/c3ccco3)S2)cc1C,25,-11,-2.9*,i,76*,-1,12,.,eIF4H inh retest=90*;PABP polyA inh retest=92*
N#Cc1ccc(S(=O)(=O)N2CCCN(c3ccc(C(F)(F)F)cn3)CC2)cc1,1,3,9,i,0,4,0,33,
Cc1nc(Nc2nc3ccccc3o2)nc(C)c1C,-9,.,7,i,-2,3,6,-5,
COC(=O)c1sccc1S(=O)(=O)NCc1ccc(S(N)(=O)=O)cc1,-11,4,-14,i,-2,2,5,1,
CC1C(=O)N(Cc2cn(Cc3ccco3)nn2)CCS(=O)(=O)N1Cc1ccc(-c2ccccc2C(F)(F)F)cc1 (stereo not given),.,-15,.,.,.,3,-4,1,
CCN(CCNS(=O)(=O)c1ccc2[nH]c(=O)sc2c1)c1ccccc1,-5,-9,-11,?,6,0,-8,22,
COc1cc(C(O)c2nc(-c3ccc(F)c(Cl)c3)cs2)ccc1F (stereo not given),.,-4,.,.,.,2,-2,-10,
COc1ccc(CN(C)C(C)C(=O)Nc2ccc(S(=O)(=O)N3CCCC3)cc2)c(OC)c1OC (stereo not given),-1,.,12,i,-1,.,.,.,
CN=C1SC(CC(=O)Nc2ccc(F)cc2F)C(=O)N1/N=C(\C)c1cccc(OCC(=O)O)c1 (stereo not given),-3,-11,5,i,2,-6,-1,12,
Cc1cc(C)n2c(SCC(=O)N(C)C3CCCCC3)nnc2n1,-10,.,-2,i,0,4,7,0,
S=c1nc2ccccc2c2nc(-c3cccnc3)[nH]n12,6,-26,14,i,3,2,0,-5,
CCN1/C(=C2/SC(=S)N(NC(C)=O)C2=O)Sc2ccc(OC)cc21,-18,-11,-4,i,35,-21,0,12,
CCN(/C=N/c1sc2c(c1C#N)CC(C)(C)NC2(C)C)CC,.,-10,-1,i,-6,4,1,.,
CN(C)CCNc1ncnc2c1ncn2[C@H]1CN(Cc2ccc(Cl)cc2)C[C@@H](CO)O1,.,3,.,.,.,0,3,-1,
O=C(c1ccco1)N(Cc1ccc(Cl)cc1)Cc1ccco1,4,-11,4,i,-10,0,0,0,
O=C(O)CSc1nc(-c2cccs2)cc(C(F)(F)F)n1,-8,.,-8,.,1,1,1,14,
COCCNc1c(-c2cc3ccc(C)c(C)c3[nH]c2=O)nc2ccccn12,-1,.,3,i,6,5,-1,-94,
O=C(CSc1nc2ccccc2o1)NCCOc1ccccc1,-3,-10,6,i,3,1,0,-11,
c1ccc(-c2ncc(-c3ccn[nH]3)s2)cc1,3,.,86,i,-1,1,0,-128,eIF4H inh retest=-1;PABP polyA inh retest=14
COc1cc(OC)cc(C(=O)NC2CCN(CC(=O)Nc3cccc4ccccc34)CC2)c1,.,-9,0,i,1,2,-4,.,
O=C(NCc1ccccc1Cl)c1ccc2ccccc2n1,10,-11,0,.,7,2,3,-18,
COc1ccc(N2CCN(C(=O)c3cc4ccccc4o3)CC2)cc1,1,-18,-5,i,-10,-1,0,-1,
CCC(/C=C1\Sc2ccc(OC)cc2N1CCO)=C\c1sc2ccc(OC)cc2[n+]1CCO,11,-8,-23,.,6,49,60,-18,
Cc1ccc(N2CCN(S(=O)(=O)c3ccc(F)cc3)CC2)c(C)c1,.,12,-4,i,0,-4,-6,18,
CCN(CC)CCNC(=O)NC(=O)c1ccc(Cl)cc1,-3,-4,6,i,-1,0,2,14,
COc1ccc(CNC(=O)C2CCC(CNc3c(N4CCCCC4)c(=O)c3=O)CC2)cc1 (stereo not given),-1,-4,-5,i,-17,-1,-2,-25,
NC(=S)NN=C1c2cc(S(=O)(=O)N3CCOCC3)ccc2-c2ccc(S(=O)(=O)N3CCOCC3)cc21,1,-18,0,i,2,4,-2,-31,
Cc1cccc(OCC(O)Cn2c(-n3nc(C)cc3C)nc3c2c(=O)[nH]c(=O)n3C)c1 (stereo not given),-7,-2,4,i,4,-5,-1,.,
CC1C=CCC2C(=O)N(c3cccc(C(=O)Nc4ccc(F)cc4)c3)C(=O)C12 (stereo not given),-7,-12,-6,i,-2,0,-2,33,
CCC(C(=O)N1CCC(N2CCCCC2)CC1)n1nc(C)c2sc3ccccc3c2c1=O (stereo not given),7,-6,-1,i,6,1,2,-2,
CCCCN1C(=O)C(CC(=O)NCCN2CCOCC2)CC(C(=O)N(C(C)C)C(C)C)=C1C (stereo not given),.,-6,.,.,.,2,9,8,
O=S(Cc1ccc(Cl)cc1)c1ncc(CO)n1Cc1ccccc1 (stereo not given),4,.,23,i,-5,-10,-8,3,
O=C(CCN1C(=O)C2C3C=CC(C4CC34)C2C1=O)OCC(=O)c1ccccc1 (stereo not given),6,6,25,i,1,-2,1,7,
COc1ccc(C(=O)O/N=C(\N)c2cccc(C)c2)cc1OC,-2,-10,0,i,10,-2,-6,-162,
CC1=NCC(C)c2c1[nH]c1ccccc21 (stereo not given),-16,-7,-7,i,2,-12,2,-24,
Cc1ccc(S(=O)(=O)c2c(N)n(/N=C/c3ccco3)c3nc4ccccc4nc23)cc1C,15,-17,44,i,9,0,5,.,
COc1ccccc1CNC(=O)c1cc2c(=O)[nH]c3ccccc3c2n1C,1,.,-15,i,-8,.,.,19,
CC1CC(C)CN(S(=O)(=O)c2ccc(C(=O)N(c3ccccn3)C3CCCCC3)cc2)C1 (stereo not given),3,.,-2,i,2,-6,-9,10,
C/C(CCS(=O)(=O)c1ccccc1)=N/O,1,.,5,i,-4,-1,2,10,
COc1ccc(C(=O)Nc2ccccc2C(=O)Nc2ccccn2)cc1,14,-18,-1,i,-8,-1,-2,-14,
CCN1Cc2c(cc(OC)c(OC)c2OC)-c2ccccc2S1(=O)=O,.,-2,.,.,.,5,3,24,
CCC(C)NS(=O)(=O)c1ccc(OCC(=O)Nc2ccc3c(c2)OCO3)cc1 (stereo not given),.,-14,9,i,3,0,-3,-28,
COc1ccc(S(=O)(=O)N2CCC(C(=O)N3CCCCC3)CC2)cc1Cl,-7,-3,4,i,9,1,-4,.,
CC(NC(=O)c1cccc(Br)c1)c1ccccc1 (stereo not given),.,-9,8,i,0,1,0,13,
O=C(N/N=C/c1ccco1)C(O)C(O)C(=O)N/N=C/c1ccco1 (stereo not given),3,-7,13,i,4,1,3,12,
CCOC(=O)N1CCN(c2cc(=O)n(C)c(=O)n2C)CC1,-14,6,6,i,6,-1,0,4,
Oc1c(N=Nc2ccccn2)ccc2ccccc12,99*,.,-1,i,13,77,57,-373,
O=C(Cc1ccccc1)NCCc1cccc(Cl)c1,13,-23,1,i,-3,4,2,-4,
Cc1occc1C(=O)N/N=C/c1ccc(OCc2ccccc2)cc1,3,.,-8,i,1,2,6,-27,
Cc1ccc(-n2c(SCc3nc4ccccc4c(=O)[nH]3)nnc2-c2ccccc2O)cc1,7,.,-5,i,6,-1,-1,-45,
O=C(CCCn1cc([N+](=O)[O-])cn1)NCc1ccccc1,0,.,-10,i,-12,-2,-1,-4,
CC(C)CC(=O)Nc1ccc(S(=O)(=O)NCc2ccco2)cc1,-3,-8,3,i,11,4,-1,44,
# (more compounds)
SMILES,CSC inhib,UUG fidelity,PABP polyA inh,Rce1 inh,eIF4H inh,MT1-MMP act inh,MT1-MMP act inh RFP,HIV Env fusion,others
O=C(c1cc2c(=O)n3ccccc3nc2s1)N1CCOCC1,3,-21,-1,i,-3,-1,4,-42,
Cc1ccc(NC(=O)CSc2nc3ccccc3c3nc(CCc4c(C)n[nH]c4C)nn23)cc1F,-7,-21,13,i,4,-2,-2,-49,
O=C1c2cccc3cccc(c23)N1Cc1ccc(F)cc1,0,.,3,i,10,-3,4,12,
Cc1ccc(-c2nc(N3CCN(C)CC3)c3ccccc3n2)cc1,7,2,-17,i,-1,-4,-4,-3,
COC(=O)c1ccc(C(=O)OC)c(NC(=O)CN2CCN(c3ccc(OC)cc3)CC2)c1,-7,-3,-2,i,3,-7,-3,.,
O=C(Nc1cccc2nsnc12)c1ccc2c(c1)OCO2,3,-15,-2,i,4,0,1,.,
COc1ccc(CCN2C(=O)NC(NC(=O)CCc3ccccc3)(C(F)(F)F)C2=O)cc1OC (stereo not given),-6,1,3,i,0,2,-3,18,
CCOc1ccccc1N1CCN(C(=O)CNC(=O)c2ccccc2F)CC1,-13,-7,4,i,-8,-1,-2,20,
Cc1cc(C(=O)COc2ccccc2C(N)=O)c(C)n1C1CC1,-2,.,0,i,14,1,-4,-31,
O=C(COC(=O)c1ccc(O)cc1O)Nc1ccc2ccccc2c1,16,-7,.,.,.,5,3,.,
Cc1cc(C(=O)Nn2c(-c3ccncc3)nc3ccccc3c2=O)ccc1[N+](=O)[O-],-2,-12,-9,i,-10,-5,0,14,
Cc1cccc(OCC(=O)OCC(=O)N(CC(C)C)c2c(N)n(Cc3ccccc3)c(=O)[nH]c2=O)c1C,6,0,.,i,.,-4,4,0,
CCN(CC)S(=O)(=O)c1ccc(NC(=O)C2CC(=O)N(c3ccc4c(c3)OCCO4)C2)cc1 (stereo not given),.,-10,.,.,.,0,2,7,
O=C(CSc1cccc[n+]1[O-])Nc1c(Br)cc([N+](=O)[O-])cc1Br,.,18,53,i,-1,-2,-6,0,eIF4H inh retest=6;PABP polyA inh retest=4
O=C(Nc1cccnc1)c1c(O)c2cccc3c2n(c1=O)CC3,-22,.,7,i,6,-5,4,.,
Cn1c[n+](C)cc1/C=N/O,-1,-15,-5,i,-4,-6,-3,-70,
COc1ccc(CCNC(=O)CCCNC(=O)Cn2cnc3sc(C)c(C)c3c2=O)cc1OC,-20,.,1,i,1,-1,-2,0,
COc1ccc(C(=O)COC(=O)c2c(-c3ccccc3)noc2C)c(OC)c1,-4,-16,.,i,.,3,-7,27,
CCS(=O)(=O)N1N=C(c2cccc(NS(C)(=O)=O)c2)CC1c1ccccc1 (stereo not given),11,.,81,i,?,-109,0,-9,PABP polyA inh retest=48
COc1ccc(NC(=O)CC2SC(=NCC3CCCO3)NC2=O)cc1 (stereo not given),-11,-18,29,i,11,-3,-1,?,
Cc1ccc(-n2nnc(-c3nccs3)n2)cc1,13,-81,-8,i,-3,8,0,-3,

# Source: PubChem BioAssay (several laboratories)
